NPYLR7 agonist: mosquito NPYLR7 agonism. HEK293T NPYLR7/Galpha15, GCaMP6s calcium fluorescence. AID 1259423. 0.15% of 270,000 active. activation, % at 10 µM; in the data active = activation above about 40%;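 also: 0% = vehicle and 100% = reference agonist at the receptor; some compounds past the cut are filed as inactive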
NPYLR7 agonist max-min: also measured in NPYLR7 agonist; calls as there; activation, %; measured here: Max-Min RFU normalised activation; some inactives read as strong as hits;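 span of the calcium signal over five minutes; 0% = vehicle and 100% = native peptide agonist; compound fluorescence can raise it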
Active calls of the source: *; & = joins results of further samples.

The first 3 compounds, to show the layout:
canonical_smiles	NPYLR7 agonist	NPYLR7 agonist max-min
Brc1ccc(-c2nc3ncccn3c2NC2CCCCC2)o1	-2	-2
COc1ccc(CCN(C)c2cc(-c3ccccc3)nc(SCc3ccc(C(=O)N4CCCC4)cc3)n2)cc1OC	8	4
CCc1[nH]n(-c2ccc(F)cc2)c(=O)c1C1=C(N2CCC(C)CC2)C(=O)N(CC(C)C)C1=O	6	6

The listing, previewed entries included:
canonical_smiles	NPYLR7 agonist	NPYLR7 agonist max-min
Brc1ccc(-c2nc3ncccn3c2NC2CCCCC2)o1	-2	-2
COc1ccc(CCN(C)c2cc(-c3ccccc3)nc(SCc3ccc(C(=O)N4CCCC4)cc3)n2)cc1OC	8	4
CCc1[nH]n(-c2ccc(F)cc2)c(=O)c1C1=C(N2CCC(C)CC2)C(=O)N(CC(C)C)C1=O	6	6
CCOc1ncccc1CN1CCCC(C(=O)NCc2ccc3c(c2)OCO3)C1 (stereo not given)	12	3
CC(C)OCCN(C)C(C)c1cccc(S(N)(=O)=O)c1 (stereo not given)	3	1
CCNC(=O)C1CCN(c2nnc(-c3ccccc3F)cc2C)CC1	3	4
CC(C)N(C(=O)Cn1nc(-c2ccco2)c2sc(N3CCCCC3)nc2c1=O)c1ccccc1	-5	-10
CC(NC(=O)c1ccco1)C(=O)N(Cc1ccc(F)cc1)CC1CC1 (stereo not given)	-6	-7
COc1ccc(CN2C(=O)N(CC(=O)NC(C)C)c3ccccc3S2(=O)=O)cc1	2	4
O=c1c(-c2ccc(O)cc2)coc2c(C3O[C@H](CO)[C@@H](O)[C@H](O)[C@H]3O)c(O)ccc12 (stereo not given in full)	3	-6
O=c1sc(N2CCN(C3CCCCC3)CC2)nc2ccsc12	2	0
CCCOc1ccccc1Cn1c(=O)oc2ccccc21	22	16

Record cards, as listed above. Order of values: NPYLR7 agonist	NPYLR7 agonist max-min
CCNC(=O)C1CCN(c2nnc(-c3ccccc3F)cc2C)CC1 as listed: 3	4
O=c1c(-c2ccc(O)cc2)coc2c(C3O[C@H](CO)[C@@H](O)[C@H](O)[C@H]3O)c(O)ccc12 (stereo not given in full) as listed: 3	-6

The results go on.
canonical_smiles	NPYLR7 agonist	NPYLR7 agonist max-min
O=C(CN1CCOCC1)Nc1ccc(OC(F)(F)F)cc1	15	4
CC1(C)CC(=O)C2C(=Nc3ccccc3NC2c2coc3ccccc3c2=O)C1 (stereo not given)	-1	-4
COC(=O)C1CCCCN1C(=O)c1cc(Cl)ccc1OC1CCN(C(C)=O)CC1 (stereo not given)	1	-6
COc1ccc(-c2nnc3ccc(OCCNC(=O)c4cc(C)cc(C)c4)nn23)cc1OC	-1	34
Fc1ccc(CNCc2ccc3c(c2)OCO3)cc1	4	3
COc1ccc(Cn2c(-c3ccccc3OC)n[nH]c2=O)cc1	-2	2
COCc1ccc(C(=O)N2CCc3c(cc(-c4ccncc4)c(=O)n3CCN3CCCCC3)C2)s1	9	-5
Cc1cc(C#N)ccc1Oc1ccc(C(=O)O)cc1	4	0
CCCc1cc(C(=O)N2CCC(n3nccc3NC(=O)C(OC)c3ccccc3)CC2)no1 (stereo not given)	-2	-2
Cc1ccc(N2CCN(C(=O)C3CCC3)C(C)C2=O)cc1F (stereo not given)	23	31
CCC(C)c1ccc(S(=O)(=O)Nc2cc(C(N)=O)c(F)cc2F)cc1 (stereo not given)	-5	-6
CCOc1ccc(N(CC(=O)NCc2ccco2)S(=O)(=O)c2ccc(SC)cc2)cc1	-9	-10
FC(F)(F)c1cccc(Cc2noc(CNCc3ccncc3)n2)c1	-1	-4
Cc1ccc(CN(C)C(=O)c2cc(Cn3ccc4ccccc43)[nH]n2)s1	6	-1
Cn1cc(C2N3CC4(C)CN2CC(C)(C3)C4O)c2ccccc21 (stereo not given)	8	2
CNC(C)(C)/C(=N\O)c1ccccc1	-12	-18
Cc1cc(C)cc(OCc2nc(CNCCN3CCOCC3)cs2)c1	30	28
CCc1ccccc1OCC(=O)NC1CCN(C2CCOC2)CC1 (stereo not given)	14	15
CC(C)c1ncc(S(=O)(=O)N(Cc2ccccc2)CC(F)F)[nH]1	4	3
O=C(C1CCCC1)N(Cc1cccc(C(F)(F)F)c1)CC1CC(c2ccc(Cl)cc2)=NO1 (stereo not given)	-12	-1
CCOc1ccccc1-c1cncc2ccccc12	0	-2
COC(=O)c1ccc2c(=O)n(-c3cccc(OC)c3)c(N(Cc3ccco3)C3CCCC3)nc2c1	12	3
CC1CCC(NC(=O)c2sccc2-n2cccc2)CC1 (stereo not given)	2	1
CCC(C(=O)N1CCN(C(c2ccccc2)c2ccc(C)cc2)CC1)c1ccccc1 (stereo not given)	1	-3

Quoted at random: 2 records from the list
canonical_smiles	NPYLR7 agonist	NPYLR7 agonist max-min
CCC(C(=O)N1CCN(C(c2ccccc2)c2ccc(C)cc2)CC1)c1ccccc1 (stereo not given)	1	-3
CCOc1ccccc1-c1cncc2ccccc12	0	-2

Next section.
canonical_smiles	NPYLR7 agonist	NPYLR7 agonist max-min
NC(=O)C1CCN(c2nc3ccsc3c(=O)s2)CC1	0	-2
COc1cccc(N2C(=O)CSC2c2ccc(NC(=O)C3CC3)cc2)c1 (stereo not given)	-2	9
O=c1c2cnn(C3CCS(=O)(=O)C3)c2ncn1CCc1ccccc1 (stereo not given)	7	0
Cn1cc(OCc2ccccc2)c(=O)cc1C(=O)NCc1ccccc1Cl	5	2
CNC(=O)c1ccc(NC(=O)NC2(c3cccc(Cl)c3)CC2)cc1	-4	-5
Cn1cc(Cl)c(C(=O)Nc2c(Cl)cccc2Cl)n1	-1	0
CCOc1ccccc1C(=O)N(CN1CCCC1=O)c1cccc(C(F)(F)F)c1	-4	-6
Cc1cc(SCc2ccccc2)nc(=O)[nH]1	-1	-2
COCCCn1c(C)c(C)n2c3c(=O)n(CC(C)=O)c(=O)n(C)c3nc12	1	3
Cc1nc(Cn2c(C)c(C)sc2=O)sc1C	3	3
COc1ccc(-c2cc(N3CCN(c4cccc(C(F)(F)F)c4)CC3)n3ncnc3n2)cc1	14	11
CC(C)c1ccc(NC(=O)c2ccc(-n3nc(-c4ccc(Cl)c(Cl)c4)cc3N)cc2)cc1	-1	-6
O=C(NCCc1ccccc1F)C1CC=CCC1C(=O)N1CCc2ccccc2C1 (stereo not given)	-8	-15
CN(Cc1ccco1)C(=O)c1ccccc1N1CCC(NC(=O)Nc2cccc(Cl)c2)CC1	2	14
CCSCCN(C(=O)c1ccc(-n2cnnc2)cc1)C1CCCCC1	30	19
CCN(CCOC)C(=O)CSc1nnc(C)s1	7	4
CCOC(=O)C1=C(C)N(CCOC)C(=O)NC1c1cccs1 (stereo not given)	-7	17
CN1CCC2(CCN(Cc3ccc(-n4cncn4)cc3)CC2)C1	-6	-6
COc1ccc(C(=O)NCc2ccncc2)cc1Oc1nc(Cc2ccc(C)cc2)ns1	-8	-6
COc1ccc(-n2nnc(C(=O)OCc3nc(-c4ccc(OC(C)C)cc4)oc3C)c2C)cc1	-15	-18
Nc1nnc(SCC(=O)c2ccc(Cl)s2)s1	0	-4
O=C(Nc1ccnc(-c2ccccc2)n1)c1ccccc1C(F)(F)F	2	10
CCN1CCN(C(=O)C(C)Sc2nc(N)c3ccsc3n2)CC1 (stereo not given)	0	9
CC(C)N(Cc1nccn1C)c1nc2nonc2nc1NC1CCCC1	3&6	0&2
CCn1cc(C(CC(=O)N2CCN(C/C=C/c3ccccc3)CC2)c2ccc(F)cc2)c2ccccc21 (stereo not given)	7	16
Cc1ccccc1N1CCN(C(=O)c2ccccc2)C(C)C1=O (stereo not given)	18	20
Nc1ccc2nn(-c3cccc4ccccc34)nc2c1	-1	3
O=C(CSc1ccc(-c2ccc(-n3cccn3)cc2)nn1)NCc1ccccc1Cl	-11	-15
CCCCCCCC1C(C#N)C(=N)SC(=N)C1C#N (stereo not given)	23	19
CCCCc1ncc(CN2CCCn3nc(C(=O)O)cc3C2)[nH]1	6	4
CCn1c(=O)c(C(=O)NCCO)c(O)c2ccccc21	6	1
CC(C)Oc1ccc(-c2cncn2C)cc1	2	1
COc1cc(NC(=O)NCc2nnnn2C2CCCCC2)cc(OC)c1OC	3	1
Cc1ccc(C2SCCN2C(=O)Nc2c(C)cccc2C)o1 (stereo not given)	18	17
Cc1ccccc1OCC(=O)N=Nc1c(O)[nH]c2ccc(F)cc12	-4	5
C#CCn1c(=NC(=O)c2cc(OC)c(OC)c(OC)c2)sc2cccc(OC)c21	2	1
Cc1nn(C)c2ncc(NC(=O)CSC(C)(C)C)cc12	0	0
N#CC1C(=N)OC2=C(C(=O)CCC2)C1c1cccc(O)c1 (stereo not given)	3	-5
Cc1cc(NC(=O)NC(C)c2cccc(Br)c2)no1 (stereo not given)	7	6
CCSc1nc(NCC(C)C)c2cnn(CCNC(=O)c3cn(C)nc3OC)c2n1	2	0
O=C(NCc1ccco1)c1ccc(CSc2nnc(Cc3ccccc3)n2Cc2ccccc2)cc1	14	16
C=CCn1c(SCC(=O)N(C)C)nc2sc3c(c2c1=O)CCC3	-4	-10
Cc1sc(NC(=O)C(C)C)c(C(=O)O)c1C	6	0
Cc1ccc(CSc2nc(=O)n(Cc3ccncc3)c3c2CCC3)cc1	-3	-3
N#Cc1ccc(OCc2nnnn2-c2ccc(C(F)(F)F)cc2)cc1	1	10
CC1(C)NC(=O)N(CC(O)CN2CCCC2)C1=O (stereo not given)	5	4
CCCCCNc1nnnc2c1sc1nc(N3CCOCC3)c3c(c12)CC(C)(C)OC3	3	0
COC(=O)c1ccc(Cn2c(C)c(C(=O)Nc3ccc(OC)cc3)sc2=O)o1	-8	-5
CC1(C(=O)Nc2cccc(Oc3ccccc3)c2)CCN1Cc1ccccc1OC(F)F (stereo not given)	9	1
COCCCN(CC(=O)N1CCc2sccc2C1c1ccc(OC)cc1)S(=O)(=O)c1ccc(NC(C)=O)cc1 (stereo not given)	-1	0
CCn1cc(CN(C)C(=O)c2csc(Cc3ccccc3)n2)c(C)n1	6	4
CCOc1ccc2nc(N3CCCN(Cc4cccc(C(C)=O)c4)CC3)nc(C)c2c1	20	6
CCOC(=O)c1cc(C2CC2)n(C2CCN(S(=O)(=O)c3ccc(F)cc3)CC2)n1	10	-2
CCn1cc(C(CC(=O)NCCc2ccccn2)c2cccc(F)c2)c2ccccc21 (stereo not given)	3	13
Cc1ccccc1C(=O)Oc1ccccc1-c1nc2ccc(Br)cn2c1NC1CCCCC1	-12	-6
COCCCNc1nc2nonc2nc1N(C)CCOC	-7	-2
COc1cn2c(cc1=O)C(=O)N(CCNC(=O)CC(c1ccccc1)c1ccccc1)CC2	14	9
Cc1ccccc1S(=O)(=O)NC(=O)C1(C)CCN1C(=O)CC1CCCCC1 (stereo not given)	11	6
Cc1ccc(-c2nc(CN(Cc3c(C)nn(C)c3C)C(C)C)c(C)o2)s1	-5	-11
CCOC(=O)c1cnc(-c2ccc(C(F)(F)F)cc2)nc1NCc1ccc(OC)cc1	8	1

(listing goes on)
canonical_smiles	NPYLR7 agonist	NPYLR7 agonist max-min
CC(=O)OC(CN1CCOCC1)Cn1c2ccccc2c2ccccc21 (stereo not given)	-1	-1
CCc1nnsc1C(=O)Nc1cc(Cl)c(OC)c(Cl)c1	-1	-2
O=C(N[C@H](CO)Cc1ccccc1)C1CC1(c1ccccc1)c1ccccc1 (stereo not given in full)	0	0
CCOc1cccc(CNC)c1OCc1ccc(C)cc1	18	5
Cc1ccc[n+](C2=C(c3c(C)[nH]n(-c4ccccc4)c3=O)C(=O)N(Cc3ccccc3)C2=O)c1	-5	0
CCc1cccc2sc(N(Cc3ccncc3)C(=O)c3ccc(C#N)cc3)nc12	-7	-14
O=C(Nc1ccc(-n2cccn2)cc1)C1CCCCN1Cc1ccccc1Cn1cccn1 (stereo not given)	5	0
c1ccc2sc(N3CCN(Cc4nc(-c5ccc6c(c5)OCO6)no4)CC3)nc2c1	3	2
COc1cccc(C2C(=C(O)c3ccc(OC(C)C)cc3)C(=O)C(=O)N2CCN2CCOCC2)c1 (stereo not given)	6	6
CC1SC(c2ccc(Cl)c(Cl)c2)N(CCN2CCN(C(=O)c3cccc(F)c3)CC2)C1=O (stereo not given)	24	35
O=C(Nc1ccc(-c2ccn[nH]2)cc1)C1CCCN(CCCc2ccccc2)C1 (stereo not given)	-5&18	-7&12
CN1CCCN(CC(=O)NCCN2N=C(c3ccccc3)CCC2=O)CC1	7	-2
CCN1C(=O)C(CC(=O)Nc2ccc(C)cc2C)Nc2cc(S(=O)(=O)N(C)C)ccc21 (stereo not given)	0	1
Cc1ccsc1C=c1sc(=C(C#N)C#N)n(C)c1=O	22	14
CCCCOC(=O)C(C)Sc1n[nH]c(=O)[nH]c1=O (stereo not given)	6	1
N#CCC(=O)Nc1ccc(C(=O)N2CCN(S(=O)(=O)c3ccc4c(c3)CCC4)CC2)cc1	7	4
CC(C)c1nc(CCN2CCCCCC2=O)n(-c2ccccc2F)n1	17	8
Cc1cc(NC(=O)Cn2nnc(-c3ccccc3)n2)n(-c2ccccc2)n1	19	4
CCNC(=S)Nc1ccc2c(c1)c(=O)n(C)n2CC=C(C)C	14	8
CCc1ccccc1OCCN(C)C(=O)c1ccc2nccn2c1	4	0
COc1cccc(N=Nc2c(C)[nH]n(-c3ccc([N+](=O)[O-])cc3)c2=O)c1	-2	-3
Cc1cc(C)n(C(C)CNC(=O)c2ccc(NC(=O)C3CCC3)cc2)n1 (stereo not given)	2	4
COc1ccc(Cl)cc1NC(=O)N1CCC2(CC1)NCCNC2=O	6	2
Cc1ccc(S(=O)(=O)N(Cc2ccco2)Cc2nccn2Cc2ccc(Cl)cc2Cl)cc1	1	12
Cc1ccc2nc(Cn3cnc4c(Cl)cc(Cl)cc4c3=O)cc(=O)n2c1	61*	74*

Compound activity deposited in PubChem BioAssay by Fisher Drug Discovery Resource Center.

A portion of the library; the hit share may differ from the screen's.
